From PubChem
Mtb H37Rv: M. tuberculosis H37Rv growth inhibitors, H37Rv strain (AID 1626); inhibition, % at 10 µM, or IC50 in µM where a hit was titrated; 0.95% of 220,000 active; M. tuberculosis H37Rv growth inhibition; higher % means a stronger effect;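 active = confirmed in a dose series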;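 also: bacteria incubated seven days before Alamar blue readout; 0% = bacteria only wells and 100% = bacteria with antibiotic wells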
YopH inh: blocks Yersinia enterocolitica YopH tyrosine phosphatase. inhibition, %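 (about 10 µM by stock and volumes)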. AID 898. 0.16% of 140,000 active. fluorescence Ex485/Em525;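 active = inhibition of 50% or more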;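 also: controls were vehicle for no effect and minimum signal wells for full effect; inactives centre near -20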
Arbovirus inh: antivirals against arbovirus infection; arbovirus infection cell-based antiviral screen; inhibition, % at 10 µM; 0.37% of 200,000 active; AID 1251;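 active = inhibition from about 30%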;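 also: bluetongue infection of BSR cells; cell survival read as ATP light after 72 h; 0% = infected wells without compound and 100% = uninfected wells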
Mtb betalactam: beta-lactam sensitization of Mtb H37Rv | M. tuberculosis H37Rv growth with meropenem, percent inhibition; hits of this screen are not shown here | inhibition, % at 25 µM | 0.27% of 330,000 active;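 active = about 74% or more and at least 40 points above the plate without the antibiotic, then above 30% in a dose series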;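 also: growth measured after seven days incubation then overnight dye step; 0% = bacteria only wells and 100% = bacteria with antibiotic; twin plates without the antibiotic show which effects depend on it; some results filed as inactive read as strong as hits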
RecA splice inh: blocks M. tuberculosis RecA intein splicing; P9WHJ3; cell-free RecA intein splicing, fluorescence; inhibition, %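 (about 9 µM by stock and volumes)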; 0.75% of 290,000 active; AID 2221; in the data active = inhibition above about 30%;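 also: 0% = vehicle wells and 100% = reference inhibitor control wells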
Target sequence (P9WHJ3 whole entry, looked up, canonical isoform): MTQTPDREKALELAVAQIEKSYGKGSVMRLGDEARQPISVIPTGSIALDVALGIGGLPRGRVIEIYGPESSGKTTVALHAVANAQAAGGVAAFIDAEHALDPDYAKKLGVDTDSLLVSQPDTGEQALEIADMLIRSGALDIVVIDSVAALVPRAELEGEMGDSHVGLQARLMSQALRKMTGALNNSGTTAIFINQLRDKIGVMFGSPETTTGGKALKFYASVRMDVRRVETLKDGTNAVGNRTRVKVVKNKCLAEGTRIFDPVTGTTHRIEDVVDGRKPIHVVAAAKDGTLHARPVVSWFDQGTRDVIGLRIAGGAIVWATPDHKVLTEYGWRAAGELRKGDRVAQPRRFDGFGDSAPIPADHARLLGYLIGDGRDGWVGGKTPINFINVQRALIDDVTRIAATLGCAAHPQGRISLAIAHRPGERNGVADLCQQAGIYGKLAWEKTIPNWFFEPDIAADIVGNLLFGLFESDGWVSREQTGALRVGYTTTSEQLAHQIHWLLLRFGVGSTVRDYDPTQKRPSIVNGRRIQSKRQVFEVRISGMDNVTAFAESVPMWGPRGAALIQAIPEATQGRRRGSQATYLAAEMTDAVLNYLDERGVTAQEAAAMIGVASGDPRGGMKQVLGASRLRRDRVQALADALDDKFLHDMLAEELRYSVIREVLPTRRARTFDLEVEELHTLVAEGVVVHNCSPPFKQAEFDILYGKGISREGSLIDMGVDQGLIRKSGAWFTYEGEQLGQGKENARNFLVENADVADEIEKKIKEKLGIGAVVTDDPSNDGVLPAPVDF
Arbovirus inh repeat: recorded beside Arbovirus inh, whose call it bears; inhibition, %; measured here: 10K subset replicate screen; many hits read low in the repeat;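 first of two repeat runs on a subset; 0% = infected and 100% = uninfected wells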
* marks the source's active call; other numbers are inactive results; · = no result given; & = joins results of further samples. These rows are one share of the data; count on the stated rates, not on these rows.

SMILES | Mtb H37Rv | YopH inh | Arbovirus inh | Mtb betalactam | RecA splice inh | others
CC1CN(Cc2nc3c(c(=O)[nH]c(=O)n3C)n2CC(N)=O)CC(C)O1 (centres undefined) | 2% | -7 | 9 | -2 | -0.4
CCNC(=O)c1c(O)c2c([nH]c1=O)CCCC2 | · | · | · | -10 | -2.5
COc1ccc(C/C(C)=N/NC(=S)Nc2ccccc2F)cc1 | 0% | · | -10 | -1 | -3.4
O=S(=O)(c1ccccc1)c1cnc(-c2cccnc2)nc1-c1ccc(Cl)c(Cl)c1 | -1% | -36 | 1 | 5 | -0.8
O=[N+]([O-])c1ccc(O)c(/C=N/Nc2ccccc2[N+](=O)[O-])c1 | · | · | · | 9 | 0.3
CCCCN1CC[C@H]2C=CC[C@@H](C(=O)Nc3ccc(Cl)cc3Cl)[C@H]2C1=O | 0% | · | · | 4 | 3.0
CCC(=O)OCC(=O)Nc1ccc2c(c1)OCO2 | 21% | · | 4 | 0 | -1.0
COc1ccc(CNn2c(-c3cccc(C)c3)nc3ccccc3c2=O)cc1OC | -2% | -23 | 6 | 7 | 1.9
COc1ccc(NC(=O)CC(=O)Nc2ccc(OC)cc2)cc1 | · | · | · | -3 | -0.6
COc1cc(C(=O)OCC(=O)Nc2cccc(S(=O)(=O)N3CCCC3)c2)ccc1OCC(C)C | · | · | · | -9 | 3.0
O=C(NCc1ccccn1)c1ccc(NS(=O)(=O)c2cccc(Cl)c2)cc1 | · | · | · | 4 | 3.3
O=C(NCCN1CCOCC1)C(=O)NCC1OCCCN1S(=O)(=O)c1ccc(F)cc1 (centres undefined) | · | · | · | -3 | 2.0
Cc1nn(-c2ccccc2)c(Cl)c1C(=O)N1CCN(c2ncnc3c2cnn3-c2ccccc2)CC1 | 22% | 10 | -35 | 99 | 5.3
O=C(C(=O)N1CCCc2ccccc21)c1cn(CC(=O)N2CCOCC2)c2ccccc12 | · | · | 2 | 1 | -1.8
CC(=O)Oc1ccc(/C=N/NS(=O)(=O)c2ccc(C)cc2)c(OC(C)=O)c1 | · | · | · | 1 | 4.3
Cc1csc(NC(=O)CCSCCc2ccccn2)n1 | -5% | -5 | 8 | -4 | 0.3
Cc1c(NC(=O)c2ccccc2F)c(=O)n(-c2ccccc2)n1C | 1% | -46 | 3 | -6 | -2.5
O=S(=O)(Nc1nc(-c2ccccc2)cs1)c1cc(Cl)ccc1Cl | · | · | · | -5 | 11
COc1ccc(CN2CCCC(C(=O)Nc3cccc(-n4cnnn4)c3)C2)c(C)c1C (centres undefined) | · | · | · | -1 | -5.5
CCN(CC)C(=O)c1cn(C)c2ccc(S(=O)(=O)N(CC)CC)cc2c1=O | -4% | -14 | -3 | -10 | -2.4
C1=C(CCNC2=NCCCCC2)CCCC1 | -12% | -34 | 6 | -9 | ·
O=S(=O)(c1ccc(S(=O)(=O)N2CCCC3(CCCCC3)C2)cc1)N1CCCCC1 | -4% | -17 | 2 | -4 | ·
O=[N+]([O-])c1cccc(S(=O)(=O)NCCOc2cccc3cccnc23)c1 | · | · | · | -8 | 1.1
Cc1cccc(N2CCN(CC(O)COc3ccccc3Cl)CC2)c1 (centres undefined) | · | · | · | 2 | 3.2
O=C(CCc1nnc2ccc(NCCCN3CCCC3=O)nn12)NCc1ccccc1Cl | · | · | · | -6 | -0.3

Reprinted from above (4 entries):
SMILES | Mtb H37Rv | YopH inh | Arbovirus inh | Mtb betalactam | RecA splice inh | others
O=S(=O)(c1ccc(S(=O)(=O)N2CCCC3(CCCCC3)C2)cc1)N1CCCCC1 | -4% | -17 | 2 | -4 | ·
O=[N+]([O-])c1cccc(S(=O)(=O)NCCOc2cccc3cccnc23)c1 | · | · | · | -8 | 1.1
Cc1cccc(N2CCN(CC(O)COc3ccccc3Cl)CC2)c1 (centres undefined) | · | · | · | 2 | 3.2
O=C(CCc1nnc2ccc(NCCCN3CCCC3=O)nn12)NCc1ccccc1Cl | · | · | · | -6 | -0.3

Some of these compounds in order of SMILES length, largest number first:
SMILES | Mtb H37Rv | YopH inh | Arbovirus inh | Mtb betalactam | RecA splice inh | others
CCCCN1CC[C@H]2C=CC[C@@H](C(=O)Nc3ccc(Cl)cc3Cl)[C@H]2C1=O | 0% | · | · | 4 | 3.0
O=C(NCCN1CCOCC1)C(=O)NCC1OCCCN1S(=O)(=O)c1ccc(F)cc1 (centres undefined) | · | · | · | -3 | 2.0
Cc1cccc(N2CCN(CC(O)COc3ccccc3Cl)CC2)c1 (centres undefined) | · | · | · | 2 | 3.2
CCNC(=O)c1c(O)c2c([nH]c1=O)CCCC2 | · | · | · | -10 | -2.5
CCC(=O)OCC(=O)Nc1ccc2c(c1)OCO2 | 21% | · | 4 | 0 | -1.0
Cc1csc(NC(=O)CCSCCc2ccccn2)n1 | -5% | -5 | 8 | -4 | 0.3

Following part.
SMILES | Mtb H37Rv | YopH inh | Arbovirus inh | Mtb betalactam | RecA splice inh | others
COc1ccc2[nH]c(C(=O)O)c(NS(=O)(=O)c3ccc(C)c(C)c3)c2c1 | · | · | · | 4 | 0.9
CC(/C=N/NC(=O)c1c(Br)cnn1C)=C\c1ccccc1 | 6% | -28 | -4 | -1 | -8.6
CC1C(=O)N2CCCc3cc(NC(=O)c4ccccc4Br)cc1c32 (centres undefined) | · | · | · | -6 | 1.2
CCC(CC(C)(C)O)C(=O)NNC(=S)Nc1ccccc1 (centres undefined) | -5% | · | 4 | -6 | -0.8
CC(C)(C)c1ccc(C(=O)N2CCCC2c2cccs2)cc1 (centres undefined) | · | · | · | 11 | 11
CCOC(=O)c1c(C)oc(NC(=O)CCl)c1C(=O)OCC | 73% | · | 1 | 86 | 27
O=C(Cn1nc(Cl)nc1Cl)c1cc2ccccc2oc1=O | -16% | -48 | 0 | 12 | 3.8
O=C(c1cnn2cccnc12)N1CCN(c2ccccc2)CC1 | 1% | -10 | 6 | 8 | -0.6
CC1(C)Cc2c(C#N)c(OCC(=O)c3ccc(Cl)cc3)nc(-c3ccoc3)c2CO1 | -4% | -47 | -18 | -4 | 1.3
Cc1ccc(C)c(NC2=NCC(=O)N2c2ccc3c(c2)OCCO3)c1 | -2% | -29 | 2 | -1 | 2.7
COc1ccc(Cc2nnc(SCC(=O)N3CCN(c4ccccc4)CC3)o2)cc1 | -1% | 30 | 1 | 24 | 0.4
O=C(CCl)NNc1nc(-c2ccccc2)c2cc(Cl)ccc2n1 | · | · | · | 3 | -2.3
CCO/C([O-])=N/c1c[n+](N2CCOCC2)no1 | -6% | -41 | -3 | -4&-1 | -0.6
Cc1ccc(-n2c(=O)cc(N3CC(C)CC(C)C3)[nH]c2=O)cc1 (centres undefined) | -8% | -39 | 12 | 10 | -0.1
COCCn1c(SCc2nc3ccccc3s2)nc2ccccc21 | 7% | -13 | 3 | 17 | -0.7
CCOc1ccc(NC(=O)Nc2cc(C(=O)O)ccc2N2CC3CC(C2)c2cccc(=O)n2C3)cc1 (centres undefined) | · | · | · | 3 | 0.6
CCOC(=O)N1CCN(C(=O)CN2C(=O)c3ccccc3S2(=O)=O)CC1 | · | · | · | -14 | -1.8
O=C(CCS(=O)(=O)c1ccc(Br)cc1)N1CCN(c2ccc(F)cc2)CC1 | · | · | · | 1 | -0.6
Cc1ccc(NC(=O)c2ccc(N/N=C/c3cccc(O)c3)c([N+](=O)[O-])c2)cc1 | 12% | -32 | -17 | 1 | -0.4
CCn1c(SCC(=O)N/N=C(\C)c2ccco2)nnc1-c1ccccc1 | -4% | · | -4 | 7 | -2.6
Cc1cc(C)cc(-c2nnc(SCC(=O)c3ccc4c(c3)OCCO4)o2)c1 | -6% | -17 | -6 | -3 | -0.5
COc1ccc(Cl)cc1NC(=O)C1(c2cccs2)CCOCC1 | 2% | · | 6 | -5 | -8.0
COC(=O)c1cccc(NC(=O)COc2cccc([N+](=O)[O-])c2)c1 | 2% | · | -3 | 4 | 1.1
O=C(/C(=C/c1cccc(Cl)c1)c1nc2ccccc2[nH]1)c1ccccc1 | 4% | -25 | -35 | -4 | 0.6
CCc1noc(C)c1C(=O)N(CCC(C)C)c1c(N)n(Cc2ccccc2)c(=O)[nH]c1=O | · | · | · | 2 | 1.0

The list goes on:
SMILES | Mtb H37Rv | YopH inh | Arbovirus inh | Mtb betalactam | RecA splice inh | others
COc1ccc(OCc2nnc(NC(=O)Nc3ccccc3F)s2)cc1 | -7% | · | · | -2 | ·
CCO/C(C)=N/n1c2nc3ccccc3nc2c2c(=O)n(CC(C)C)c(C)nc21 | 8% | -50 | 4 | -1 | 0.0
CC(C)N=C1NN=C(c2ccc(F)cc2)CS1 | 4% | · | -4 | 4 | 1.8
C/C(=N/NC(=O)c1ccc2c(c1)OCO2)c1ccc(NC(=O)c2ccc(F)cc2)cc1 | · | · | · | 2 | 2.9
O=C(NNC(=O)c1cccs1)c1cccc(F)c1 | · | · | · | 4 | -1.1
CCOc1ccc(CCNC(=O)C2CC(C)=CCC2C(=O)O)cc1OCC (centres undefined) | · | · | · | 5 | -1.1
CSC1=C(C#N)C(C)CC(=O)N1 (centres undefined) | -9% | -20 | 2 | -3 | 0.6
CN(CCCN1CCOCC1)Cc1nc(-c2ccccc2)no1 | -9% | · | -8 | -9 | 0.5
CNC(=O)N(O)C1N(/N=C/c2ccccc2F)C(=S)SC1(C)C (centres undefined) | · | · | · | 3 | -8.0
COc1cc(C2C(C(C)=O)=C(O)C(=O)N2c2ccc(Br)cn2)ccc1O (centres undefined) | -12% | -23 | 0 | -14 | -4.2
CCC(C)Sc1nc2c(cnn2-c2ccc(C)cc2)c(=O)[nH]1 (centres undefined) | -4% | -59 | 11 | -2 | 1.1 | Arbovirus inh repeat=-1
C#CCOCCOCCOCCNc1nc(N2CCN(C(=O)Cn3cc(CC(C)O)nn3)CC2)nc(N2CCN(C(=O)[C@H]([C@@H](C)CC)n3cc(CCCN=C(N)N)nn3)CC2)n1 (some centres undefined) | -7% | -14 | 5 | -16 | -0.1
N#Cc1cc([N+](=O)[O-])cnc1Nc1ccccc1 | -2% | -9 | -7 | -10 | -1.4
Cc1cc(N2CCCC2=O)cc(C)c1S(=O)(=O)NCCOc1ccccc1 | 6% | 1 | 2 | -5 | 0.4
COc1ccc(C)cc1NC(=O)CN(C)S(=O)(=O)c1ccc2c(c1)c(=O)n(C)c(=O)n2C | · | · | · | -3 | -3.2
CS(=O)(=O)c1ccc(C(=O)OCC(=O)NC(=O)Cc2ccccc2)cc1 | · | · | · | -1 | -0.9
C=CCNC(=O)c1nc2ccccc2s1 | -12% | -15 | -4 | 0 | -0.1
COc1ccc(NC(=O)c2cc(-c3ccc(OC)c(OC)c3)on2)cc1OC | · | -6 | 0 | -5 | 1.1
Cc1ccccc1NC(=O)CSc1nc2ncc(Cl)cc2[nH]1 | · | · | · | 8 | -1.1
COc1ccccc1NC(=O)c1cc2cc(Br)ccc2cc1O | 14% | · | · | 6 | -5.9
COc1ccc(C(=O)NCCCN2CCOCC2)cc1OC | 2% | -24 | 3 | 1 | ·
CC(C)(C)NC(=O)NC(=O)CN1CCN(c2ccc(O)cc2)CC1 | 5% | · | 3 | -14 | -4.1
O=C(C1COc2ccccc2O1)N1CCN(c2ccccc2Cl)CC1 (centres undefined) | 15% | · | 30 | -1 | -4.3
CCSc1nnc(NC(=O)CCn2c(=O)oc3ccccc32)s1 | 5% | · | -4 | 2 | 0.2 | Arbovirus inh repeat=6
Cc1ccc(N(CN2CCCC2=O)C(=O)c2ccc(C)c(C)c2)cc1 | -3% | -31 | -6 | 2 | -2.0

(next part)
SMILES | Mtb H37Rv | YopH inh | Arbovirus inh | Mtb betalactam | RecA splice inh | others
CSc1nc2ccc(NS(=O)(=O)c3ccccc3F)cc2s1 | 8% | -26 | 9 | 10 | 16
Cc1nn(CCC#N)c2[nH]c(=O)cc(C(F)(F)F)c12 | -16% | · | 0 | -12 | 0.9
O=C(CSc1nnc(-c2ccco2)n1Cc1ccco1)NCc1cccs1 | -5% | 1 | -3 | -4 | 1.4
CCSCc1nnc(SCC(=O)Nc2ccc(F)cc2)n1CC | -1% | · | -2 | -8 | ·
CCCCCCCCCCCC(=O)NC(Cc1ccc(OC)c([N+](=O)[O-])c1)C(=O)O (centres undefined) | -12% | · | · | 5 | 6.4
O=C(O)CCCC(=O)NS(=O)(=O)c1ccc(Cl)cc1 | -7% | -26 | 8 | -3 | -1.1
CCOC(=O)CSC1=C(C#N)C(c2ccccc2Cl)C(C(=O)OC)C(=O)N1 (centres undefined) | 1% | -55 | -1 | 7 | 0.9 | Arbovirus inh repeat=-1
COc1ccc(C(=O)NC(=S)NNC(=O)c2ccccc2O)cc1 | · | · | · | 56 | -1.7
COc1ccc2[nH]c3c(=O)n4c(nc3c2c1)SCCC4 | 0% | · | -2 | 0 | -1.2
COC(=O)c1ccccc1NC(=O)Nc1ccc(C)cn1 | 2% | · | 1 | 0 | 4.4
